FGF22 binding = shifts melting point of recombinant human FGF22 | recombinant FGF22 thermal shift, SYPRO orange fluorescence; percent of sucrose octasulfate shift, DMSO zero | calls only at 9.99 µM | 340,000 tested, 1.5% active;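 active means melting point raised past a set limit in the mean and every replicate; inconclusive means no clear call; three in four hits are not shown here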
Target sequence (Q9HCT0 whole entry, looked up): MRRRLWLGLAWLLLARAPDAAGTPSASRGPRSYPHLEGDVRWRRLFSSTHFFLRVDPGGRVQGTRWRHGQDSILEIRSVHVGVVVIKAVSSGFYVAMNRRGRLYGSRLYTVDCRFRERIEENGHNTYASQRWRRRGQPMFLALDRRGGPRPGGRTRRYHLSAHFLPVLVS
Beta cell apopt = beta cell apoptosis inhibition; INS-1E cytokine-induced death, ATP luminescence, 48 h; percent of positive-control rescue, neutral wells zero; protection from apoptosis, % (test concentration not listed); AID 435005; 300,000 tested, 0.8% active;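 active means all replicates at 75% or more, or half of them and the mean; inconclusive means half reach 75% but not the mean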;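 further: 0% = cytokine-treated negative control wells and 100% = positive control rescue; higher means more ATP so stronger rescue from cytokine killing; wells of about 40 µL received 100 nL stock; the first replicate is given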
AF4-AF9 inh = MLL-AF4/AF9 protein interaction inhibition. AlphaScreen, biotin-AF4 peptide binding to FLAG-AF9. 350,000 tested, 0.47% active. inhibition, % at 10 µM. AID 651704. P42568;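 active means every replicate reaching a set inhibition limit, whatever the replicate mean, cut at about 25% in these data; inconclusive means mean inhibition reaches that limit but some replicates miss it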;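 further: 0% = plate neutral control median and 100% = total signal loss; the record names both 10 and 1 µM as test concentration; the first replicate is given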
Target sequence (P42568 whole entry, looked up): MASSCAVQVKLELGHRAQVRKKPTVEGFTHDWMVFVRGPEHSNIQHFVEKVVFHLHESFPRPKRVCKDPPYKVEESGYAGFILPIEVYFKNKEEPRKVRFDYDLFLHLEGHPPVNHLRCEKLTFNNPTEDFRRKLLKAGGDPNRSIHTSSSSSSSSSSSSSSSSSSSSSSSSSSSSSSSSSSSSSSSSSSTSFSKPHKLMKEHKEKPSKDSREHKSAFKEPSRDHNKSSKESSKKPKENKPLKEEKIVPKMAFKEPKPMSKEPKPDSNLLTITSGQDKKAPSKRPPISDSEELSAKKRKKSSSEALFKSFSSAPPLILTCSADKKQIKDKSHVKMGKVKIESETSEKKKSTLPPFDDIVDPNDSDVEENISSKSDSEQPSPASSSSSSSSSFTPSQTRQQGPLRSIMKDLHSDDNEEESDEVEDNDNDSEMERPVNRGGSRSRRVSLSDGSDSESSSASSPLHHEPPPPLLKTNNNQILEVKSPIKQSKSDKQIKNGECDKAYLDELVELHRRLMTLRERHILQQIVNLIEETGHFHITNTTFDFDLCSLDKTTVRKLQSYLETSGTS
ALR H2O2 inh = human ALR oxidase inhibition via reduced H2O2. inhibition, % (concentration not given with the values). 290,000 tested, 3.8% active. purified ALR, DTT oxidation, H2O2 HRP-luminol luminescence;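 active means mean and each replicate at 75% or more; inconclusive means only one of the two met; inactive means neither met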;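 further: stock transfer was 7.5 nL into about 7.5 µL; 0% = neutral wells and 100% = wells with inactivated enzyme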
Target sequence (P55789 whole entry, looked up): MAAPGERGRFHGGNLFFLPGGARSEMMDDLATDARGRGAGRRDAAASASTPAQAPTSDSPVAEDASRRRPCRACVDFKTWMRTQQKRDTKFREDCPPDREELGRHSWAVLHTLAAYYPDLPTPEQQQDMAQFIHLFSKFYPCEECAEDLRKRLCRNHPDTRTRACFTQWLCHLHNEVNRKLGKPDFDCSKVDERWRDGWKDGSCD
Ecoli rRNA inh = selective bacterial rRNA inhibition in E. coli; 350,000 tested, 1.6% active; E. coli WT GFP vs humanized-ribosome RFP mutants, fluorescence, 24 h; hits give low values; DMSO median 0, no signal -100; GFP signal change (wild-type ribosome), % (no concentration beside the values);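 active means significant combined selectivity score with lowered wild-type GFP, culture density cut under 30%, mutant RFP and density less affected; inactive means any of these conditions unmet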; further: one replicate is shown; some compounds called inactive have numbers as strong as hits
Calb FLC = C. albicans growth modulation with fluconazole | C. albicans CaCi-2 (fluconazole-resistant clinical isolate) + fluconazole, Alamar Blue growth, 48 h | growth inhibition, % (test concentration not listed) | 300,000 tested, 0.57% active | AID 1979;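 active means most replicates above 75%; inconclusive means exactly half above 75%; inactive means most below 75%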;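 further: all wells also contain fluconazole at 8 µg/ml as a sub-toxic cotreatment; 0% = median of DMSO wells and 100% = median of geldanamycin control wells; wells of about 8 µL received 7.5 nL stock; the first replicate is given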
RanGTP-Impb inh = disruptors of Ran-importin-beta complex formation – biochemical, FRET, CFP-Ran, YFP-importin-beta, homogeneous, primary screen. cell-free CFP-Ran/YFP-importin-beta FRET ratio. inhibition, % (concentration not given with the values). 300,000 tested, 1.1% active. AID 2216;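 active means most replicates above 15%; inconclusive means exactly half above 15%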;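 further: 0% = DMSO wells and 100% = Ran loaded with GDP instead of GTP; wells of about 40 µL received 100 nL stock; the first replicate is given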
T cruzi repl = T. cruzi replication inhibition | T. cruzi beta-gal in NIH3T3, luminescence, 90 h | 300,000 tested, 1.4% active | inhibition, % (test concentration not listed) | AID 1885;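 active means mean inhibition across valid replicates above about 55%, limit read from the data; inconclusive means mean below that limit but half or more replicates reach it; inactive means mean below it, under half of replicates reach it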;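 further: signal also drops with host cell toxicity which is not excluded here; 0% = plate median of DMSO wells and 100% = zero luminescence signal; higher percent means less beta-gal luminescence so fewer parasites; stock transfer was 50 nL into about 50 µL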
Ecoli rRNA inh OD600 = also measured in Ecoli rRNA inh; calls as there; OD600 change, %; measured here: OD600 growth;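 optical density of the mix in the first replicate; 0 = DMSO median and -100 = no signal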
Ecoli rRNA inh RFP = further read-out of Ecoli rRNA inh, marked with its call; RFP signal change, %; measured here: RFP humanized mutant strains;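 first replicate; 0 = DMSO median and -100 = no signal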
An asterisk follows results filed as active; i = inactive; ? = inconclusive; / = not tested or not shown. Some of the compounds tested (hit frequency here may not be typical).

Start of the data: the first nine compounds as a preview:
SMILES	FGF22 binding	Beta cell apopt	AF4-AF9 inh	ALR H2O2 inh	Ecoli rRNA inh	Ecoli rRNA inh OD600	Ecoli rRNA inh RFP	Calb FLC	RanGTP-Impb inh	T cruzi repl
COC(=O)c1ccc(S(=O)(=O)NCc2ccc(S(N)(=O)=O)cc2)o1	i	-1	-1.7	-9	-4	-7	3.6	9	1.3	-1
O=C(CSc1ccc([N+](=O)[O-])cn1)Nc1ccc2c(c1)OCCO2	/	1	-1.5	-8	21	21	5.2	-18	-1.1	-7
CCCCn1nnc(NC(=O)c2ccc([N+](=O)[O-])cc2Cl)n1	i	-2	-47	-26	9	5	-2.0	6	0.8	8
COc1cc(Cc2nccc3cc(OC)c(OC)cc23)c(S(=O)(=O)O)cc1OC	i	2	-1.7	-20	13	18	-0.5	-5	1.5	-8
Cc1ccc(S(=O)(=O)N2CCN(C(=O)c3cccs3)CC2)cc1C	i	-1	-11	3	-10	-14	1.7	-6	-1.2	8
COC(=O)CCCNC(=O)c1ccc2[nH]c(C)c(C)c2c1	i	-6	2.6	-4	3	6	-0.9	-21	-2.7	2
N#C/C(=C\c1cn(CC(=O)N2CCCCC2)c2ccccc12)C(=O)NCc1ccc2c(c1)OCO2	/	-4	/	-6	/	/	/	2	1.5	-1
O=C(Nc1ccc(NC(=O)c2ccc(Cl)cc2Cl)cc1)c1ccc2c(c1)OCO2	i	-7	-7.9	-3	10	21	-0.9	2	4.7	-6
Oc1ccc(N=Cc2ccc(OCc3ccccc3)cc2)cc1	i	9	3.2	48	4	10	59	23	-0.3	0

Results (from the top)
SMILES	FGF22 binding	Beta cell apopt	AF4-AF9 inh	ALR H2O2 inh	Ecoli rRNA inh	Ecoli rRNA inh OD600	Ecoli rRNA inh RFP	Calb FLC	RanGTP-Impb inh	T cruzi repl
COC(=O)c1ccc(S(=O)(=O)NCc2ccc(S(N)(=O)=O)cc2)o1	i	-1	-1.7	-9	-4	-7	3.6	9	1.3	-1
O=C(CSc1ccc([N+](=O)[O-])cn1)Nc1ccc2c(c1)OCCO2	/	1	-1.5	-8	21	21	5.2	-18	-1.1	-7
CCCCn1nnc(NC(=O)c2ccc([N+](=O)[O-])cc2Cl)n1	i	-2	-47	-26	9	5	-2.0	6	0.8	8
COc1cc(Cc2nccc3cc(OC)c(OC)cc23)c(S(=O)(=O)O)cc1OC	i	2	-1.7	-20	13	18	-0.5	-5	1.5	-8
Cc1ccc(S(=O)(=O)N2CCN(C(=O)c3cccs3)CC2)cc1C	i	-1	-11	3	-10	-14	1.7	-6	-1.2	8
COC(=O)CCCNC(=O)c1ccc2[nH]c(C)c(C)c2c1	i	-6	2.6	-4	3	6	-0.9	-21	-2.7	2
N#C/C(=C\c1cn(CC(=O)N2CCCCC2)c2ccccc12)C(=O)NCc1ccc2c(c1)OCO2	/	-4	/	-6	/	/	/	2	1.5	-1
O=C(Nc1ccc(NC(=O)c2ccc(Cl)cc2Cl)cc1)c1ccc2c(c1)OCO2	i	-7	-7.9	-3	10	21	-0.9	2	4.7	-6
Oc1ccc(N=Cc2ccc(OCc3ccccc3)cc2)cc1	i	9	3.2	48	4	10	59	23	-0.3	0
Cc1cc(/C=C(/C#N)C(=O)O)c(C)n1-c1cccc2ccccc12	i	12	0.9	96*	2	-18	7.1	3	1.2	7
C=CCn1c(O)c(CN2CCN(Cc3ccccc3)CC2)c(C)c(C#N)c1=O	/	1	/	-12	/	/	/	-18	0.6	-3
COCCNC(=O)CCCn1c(=O)c2cc(OC)c(OC)cc2n(CC(=O)NCCC2=CCCCC2)c1=O	i	-4	-7.1	1	3	3	-4.1	51*	2.0	-8
CCC1CCC(C(=O)NNC(=O)OC)CC1 (stereo not drawn)	/	-6	/	-11	/	/	/	-17	-2.6	3
O=C(NCCc1c[nH]c2ccccc12)C1Cc2ccccc2CN1C(=O)c1ccco1 (stereo not drawn)	/	0	/	16	/	/	/	-1	-1.5	8
CCC(C)(C)NC(=O)CN(C(=O)CNS(=O)(=O)c1ccc(C)cc1)c1ccc2c(c1)OCCO2	/	2	/	-1	/	/	/	-20	3.5	11
COC(=O)C1(C)CCc2cc(OC)ccc2C1=O (stereo not drawn)	/	-6	/	3	/	/	/	56	-4.2	-7
CCc1ccc(-c2cc3c(=O)n(CC(=O)NCCCN4CCC(Cc5ccccc5)CC4)nc(C)n3n2)cc1	i	14	-2.3	-4	5	9	2.3	10	-1.4	0
Cn1c(N2CCN(S(=O)(=O)c3ccc(Cl)cc3)CC2)nc2ccccc21	/	4	0.3	/	6	1	1.1	16	1.0	18
O=C(C[C@@H]1C/C=C\C[C@H](NC(=O)OCC2c3ccccc3-c3ccccc32)C(=O)OC[C@H]2CCCN2C1=O)N[C@@H](CO)Cc1ccccc1	i	36	0.3	-6	14	0	2.2	/	/	/
O=C(NCCC(c1ccccc1)c1ccccc1)c1cnccn1	/	-7	/	/	/	/	/	3	-1.9	-5
O=C(NC(=O)c1ccccc1)Nc1ccc(-c2cnco2)cc1	i	-4	-0.9	-10	16	9	1.9	-3	-0.7	-15
Cc1cc(C)n(C(=O)CCC(=O)Nc2ccc(C)c(C)c2)n1	/	-3	/	/	/	/	/	8	-1.7	-20
Cc1cc2c(cc1C)-c1c(ssc1=Nc1ccc(S(N)(=O)=O)cc1)C(C)(C)N2	i	28	1.3	-3	-5	-23	-1.4	4	2.9	26
Cc1cc(C)n(CC(=O)Nc2ccc(N3CCOCC3)c(Cl)c2)c(=O)c1C#N	i	-3	1.9	-7	/	/	/	4	-2.9	16
CC(C)NS(=O)(=O)c1cccc2nsnc12	/	-6	/	/	/	/	/	1	-1.0	-13
COc1ccc2nc3n(c(=O)c2c1)-c1ccc(Cl)cc1C(=O)NC3Cc1ccccc1 (stereo not drawn)	i	5	-1.1	0	1	5	2.3	/	/	/
CCCc1nnc(SCC(=O)Nc2nccs2)o1	i	-2	-0.5	-2	8	7	1.8	2	-1.7	-7
Cc1ccc(S(=O)(=O)N2[C@@H](c3ccc(F)cc3)C(C(=O)O)=CC[C@H]2c2ccc(C(C)C)cc2)cc1	i	-3	-1.0	65	-28	-31	12	/	/	/
CN1CCN(c2nc3c(c(=O)n(C)c(=O)n3C)n2Cc2ccc(Cl)cc2)CC1	i	/	-3.9	0	5	5	3.0	0	-5.3	8
Cc1[nH]c2ccccc2c1C(c1ccncc1)N1CCN(c2ccccc2F)CC1 (stereo not drawn)	i	-11	5.5	-6	-1	1	-2.5	2	-11	14
Cc1nc(-c2ccc(Br)cc2)ccc1C(=O)O	/	-2	/	2	/	/	/	13	1.4	-1
COC(=O)c1cc(Br)ccc1NC(=O)Nc1ccc(C)cc1	/	17	/	-6	9	8	5.0	1	-2.3	-1
CN(C(=O)COC(=O)c1ccc(Cl)c(S(=O)(=O)N2CCCCC2)c1)C1(C#N)CCCCC1	i	-6	-2.6	-6	/	/	/	/	/	/
Cc1csc(NC(=O)c2ccc[nH]c2=O)n1	i	7	0.3	-12	-2	3	0.8	1	0.8	-10
COc1ccc(S(=O)(=O)Nc2ccc3c(c2)n(C)c(=O)n3C)cc1OC	i	-3	8.3	/	16	9	5.4	28	0.0	16
CC1(C)Nc2ccccc2N(Cc2ccc([N+](=O)[O-])cc2)C1=O	i	-1	7.1	96*	1	-3	-0.1	14	-3.5	2
CC(=O)c1c(C)[nH]c(C(=O)NCc2ccccc2)c1C	/	-10	/	3	/	/	/	0	-5.5	0
C=Cn1cc[n+](CC(=O)c2cc(C(C)(C)C)c(O)c(C(C)(C)C)c2)c1	i	-1	-6.7	33	-19*	-9.0*	-0.4*	18	0.1	-4
COc1ccccc1/C=C/C(=O)NC(=S)NCC1CCCO1 (stereo not drawn)	i	4	6.6	-1	-25*	-14*	-0.9*	-23	-0.2	-20
Oc1c(N=NC(=S)Nc2ccccc2F)c2ccccc2n1Cc1ccccc1	i	41	11	-16	10	14	3.4	1	?	51
Cc1ccc(C)c(OCc2cc(C(=O)N3CC[C@@H]4CCCC[C@H]4C3)no2)c1	i	1	-7.2	-1	15	13	4.9	5	-1.7	12
CC1=C(C(=O)OC2CCCC2)C(c2coc3ccccc3c2=O)C2=C(CC(C)(C)CC2=O)N1 (stereo not drawn)	i	9	4.3	/	-22*	-16*	9.1*	16	4.5	13
Cc1n[nH]c(C)c1CCCCOc1ccc([N+](=O)[O-])cc1	i	-2	4.5	-3	-18	-44	3.4	8	5.8	-11
O=C(CSc1ccsc1[N+](=O)[O-])Nc1cc(F)ccc1F	i	/	-0.7	/	2	1	-1.1	-5	-4.4	-10
O=C1C(Cl)=C(N2CCCCCC2)C(=O)N1c1ccccc1	/	-2	/	3	/	/	/	4	-6.0	8
COc1ccc(NC(=O)CNC(=O)C2CCCCC2)cc1	i	-4	-1.9	1	20	24	2.9	-7	2.6	2
CNS(=O)(=O)c1cc(O)c2c(S(=O)(=O)NC)cccc2c1	/	0	/	24	/	/	/	0	-0.8	7
Nc1ccc(C(=O)Nc2ccc(NC(=O)c3ccco3)c(O)c2)cc1	i	5	-1.4	-2	-6	-1	-2.5	1	-1.4	-12
CC1(C)CC(n2c(NCCO)nc3c(c2=O)C2(CCCC2)Cc2ccccc2-3)CCO1 (stereo not drawn)	/	/	/	0	/	/	/	-8	5.4	17
Cc1occc1-c1nnc(SCC(=O)N2CCN(c3ccccc3F)CC2)n1C	/	-6	/	5	/	/	/	-6	2.8	-2
CCc1nnc(NS(=O)(=O)c2ccc(NC(=S)NC(=O)c3cccs3)cc2)s1	i	-5	-3.0	63	-15	-28	3.8	-21	-0.2	3
CC(C)c1ccc(OCC(=O)Nc2ccc(OC(F)(F)F)cc2)cc1	/	-3	/	-14	/	/	/	-1	-3.7	-14
CCCC(=O)NC(c1ccccc1Cl)c1ccc2cccnc2c1O (stereo not drawn)	i	99*	4.4	2	13	0	3.5	83*	0.4	52
Cc1cccc(-n2cc[nH]c2=S)c1	/	-2	/	65	/	/	/	-3	-5.4	-8
Cc1cc(C(=O)COc2cc(F)ccc2[N+](=O)[O-])c(C)n1C1CC1	i	27	1.3	-2	-29*	-20*	-4.5*	9	5.6	-3
COc1ccccc1NC(=O)c1[nH]c(C)c(C(C)=O)c1C	/	-1	/	/	/	/	/	-14	2.0	-3
CCCCn1c(NC(=O)c2ccc(Br)o2)c(S(=O)(=O)c2ccccc2)c2nc3ccccc3nc21	/	-16	/	40	/	/	/	33	25*	/
CCOC(=O)CCC(=O)Nc1ccc(S(=O)(=O)Nc2cc(OC)nc(OC)n2)cc1	i	-2	-9.1	/	8	5	0.1	1	0.7	-14
Cc1cccc(NC2=NC(C)(C)N=C(N)N2)c1	i	3	-1.8	-3	5	11	-0.2	0	-1.4	-54

Screening results as filed in PubChem BioAssay.
